# Screening results as filed in PubChem.
# miR-21 reporter: qHTS Assay for Modulators of miRNAs and/orActivators of miR-21. HeLa miR-21 FLuc reporter, luciferase, 48 h. Potency, µM (doses to about 38.3 µM), for the others: at the top dose reporter change, positive = more light. 340,000 tested, under 10 active. AID 2288, 2010; active = well fitted rising curve with a large enough effect; inconclusive = small, poorly fitted or top-dose-only effect; inactive = no such curve, though single readings can be large or run the other way;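 further: % of control where 0% means no effect; miR-21 action dims this reporter so a rising signal means less miR-21 action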
#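 Compounds were titrated across several concentrations (up to approximately 40 uM) and incubated 48 hours with HeLa miR-21-FLuc reporter cells (miR-21 target sequence downstream of FLuc, endogenous miR-21). Readout was firefly luciferase luminescence after lytic detection reagent.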
# GLA inh pH 4.5: qHTS Assay for Inhibitors of Human alpha-Galactosidase at pH 4.5; Alpha-galactosidase A (Homo sapiens), P06280; purified enzyme, 4-MU-alpha-Gal fluorescence, pH 4.5; activity change, negative = inhibition, % at 105 µM; 230,000 tested, under 10 active; AID 1467, 2008; inconclusive = small, poorly fitted or top-dose-only inhibition, or a rising curve; inactive = flat fitted curve, though single readings scatter; no compound was filed as active;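 further: 0% = full activity with enzyme and -100% = basal without enzyme; dose as in the result columns while the protocol names 77 µM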
# Target sequence (P06280 whole entry, looked up): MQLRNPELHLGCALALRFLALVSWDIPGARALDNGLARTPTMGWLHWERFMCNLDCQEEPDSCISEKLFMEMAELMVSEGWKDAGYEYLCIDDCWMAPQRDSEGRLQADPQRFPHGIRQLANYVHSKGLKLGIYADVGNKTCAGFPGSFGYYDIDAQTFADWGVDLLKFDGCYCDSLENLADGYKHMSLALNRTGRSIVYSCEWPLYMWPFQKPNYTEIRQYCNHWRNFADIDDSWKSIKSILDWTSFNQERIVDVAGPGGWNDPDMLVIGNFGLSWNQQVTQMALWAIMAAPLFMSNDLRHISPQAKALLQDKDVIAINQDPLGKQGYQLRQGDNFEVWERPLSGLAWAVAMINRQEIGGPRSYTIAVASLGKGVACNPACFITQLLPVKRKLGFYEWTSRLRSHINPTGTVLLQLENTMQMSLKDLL
# Rango-impB inh: qHTS Assay for Inhibitors of Rango (Ran-regulated importin-beta cargo) - Importin beta complex formation | 340,000 tested, 0.031% active | AID 540263, 2011 | Rango CFP/YFP FRET sensor + importin beta, 45 min | Importin subunit beta-1 (Homo sapiens), Q14974 | Potency, µM (series often up to 92.2 µM), without a hit: at the highest dose inhibition of complex formation; active = rising FRET ratio curve, often small or poorly fitted; inconclusive = mostly compound fluorescence or quenching in the first reads; inactive = flat curves in all reads;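 further: potency means the concentration at half of the fitted maximal effect; 0% = DMSO wells and 100% = buffer wells lacking importin beta; nearly all actives have a fitted effect of over 15% in size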
#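 FRET biosensor (snurportin 1 IBB flanked by EYFP and cerulean), 50 nM, with compound 5 min, then 0.125 microM importin beta in PBS, 1 mM DTT, 0.02% Tween-20, 0.1% BSA. CFP/YFP ratio read after 45 min at room temperature; pre-read flags interference.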
# Rango release inh: qHTS Assay for Inhibitors of RanGTP induced Rango (Ran-regulated importin-beta cargo) - Importin beta complex dissociation; Biochemical FRET Rango-importin beta, RanGTP-induced dissociation; Snurportin-1 (Homo sapiens) + GTP-binding nuclear protein Ran (Homo sapiens) + Importin …; 340,000 tested, 0.071% active; AID 540253, 2011; Potency, µM (titrated, usually from 46.1 µM), without a hit: top-dose activity change, negative = inhibition; active means falling FRET ratio curve, often poorly fitted, with flat reads before Ran was added; inconclusive means other falling curves, or compound fluorescence or quenching; inactive means flat or rising ratio curve;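 further: potency means the concentration at half of the fitted maximal effect; % of control where 0% means no effect; nearly all actives have a fitted effect of over 45% in size; -100% = wells without RanGTP and RCC1; the record marks most hits as doubtful in a second field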
#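 Rango FRET biosensor (snurportin-1 IBB flanked by N-terminal EYFP and C-terminal CFP10) at 0.1 uM, with 0.25 uM importin beta in PBS, 1mM DTT, 0.02% Tween-20, 0.1% BSA. 0.6 uM Ran, 2mM GTP and 0.2 uM RCC1 were then added for 45 min at room temperature. Inhibition read as loss of FRET rise.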
# Starred values were filed as active, the others as inactive; u = inconclusive; x = not tested or not shown. Only part of the results is shown; the hit share may differ from the screen's.
# Preview (four entries):
Rango release inh	miR-21 reporter	Rango-impB inh	GLA inh pH 4.5	SMILES
-8%	-8%	u	1	Cc1cc(O)cc(O[C@H]2OC(CO)[C@H](O)[C@@H](O)[C@H]2O)c1 (some centres not stated)
-5%	x	0.2%	x	O=C(Nc1nnc(C2CC2)s1)c1cncc(Br)c1
0%	-33%	-4.0%	-1	C/C(=N/NC(=O)c1ccc2c(c1)OCO2)c1ccc(Br)s1
7%	x	-0.2%	x	Cc1ccc(S(=O)(=O)N2CCN(C(=O)COC(=O)c3ccc(Br)o3)CC2)c(C)c1

# Main list, repeating the preview:
Rango release inh	miR-21 reporter	Rango-impB inh	GLA inh pH 4.5	SMILES
-8%	-8%	u	1	Cc1cc(O)cc(O[C@H]2OC(CO)[C@H](O)[C@@H](O)[C@H]2O)c1 (some centres not stated)
-5%	x	0.2%	x	O=C(Nc1nnc(C2CC2)s1)c1cncc(Br)c1
0%	-33%	-4.0%	-1	C/C(=N/NC(=O)c1ccc2c(c1)OCO2)c1ccc(Br)s1
7%	x	-0.2%	x	Cc1ccc(S(=O)(=O)N2CCN(C(=O)COC(=O)c3ccc(Br)o3)CC2)c(C)c1
-20%	3%	-1.4%	2	COCCCN1C(=O)/C(=C\c2ccc3c(c2)OCO3)C(C(=O)OC)=C1C
15%	x	0.3%	x	COc1cc(C(=O)Nc2cc(S(C)(=O)=O)ccc2Cl)ccc1OCC(=O)N1CCOCC1
5%	x	1.7%	x	NC(=S)NN=C1CCC(C2CCCCC2)CC1 (configuration not stated)
-1%	1%	0.7%	8	CCOc1ccccc1N(CC(=O)NCCSc1ccccc1)S(C)(=O)=O
1%	-18%	-2.2%	-1	O=C1CCCN=C(Nc2ccc(F)c(Cl)c2)S1
-13%	-9%	-4.1%	4	Cc1cccnc1CN1CCN(Cc2nc(Cc3cccc(F)c3)no2)CC1

# Brought forward from above: 2 entries; new compounds follow.
Rango release inh	miR-21 reporter	Rango-impB inh	GLA inh pH 4.5	SMILES
1%	-18%	-2.2%	-1	O=C1CCCN=C(Nc2ccc(F)c(Cl)c2)S1
-13%	-9%	-4.1%	4	Cc1cccnc1CN1CCN(Cc2nc(Cc3cccc(F)c3)no2)CC1
7%	-24%	-3.7%	-2	Cn1sc(NC(=O)c2cccc(Cl)c2)nc1=O
-9%	-2%	0.0%	x	CCC(C)[C@H](NC(=O)C1CC(=O)N(c2ccc3c(c2)OCO3)C1)C(=O)NC1CCCCC1 (some centres not stated)
-9%	x	-0.6%	x	Cc1cc(Cn2nnc(-c3ccc(Br)cc3)n2)cc(C)c1O
0%	2%	0.2%	11	COc1ccc(-n2c(SCc3cn4c(C)cccc4n3)nc3ccccc3c2=O)cc1OC
2%	-20%	1.0%	6	NS(=O)(=O)c1ccc(NC(=O)/C=C/c2cccs2)cc1
2%	0%	-0.6%	-4	CCOC(=O)Cn1c(=N)n(CCOc2ccc3ccccc3c2)c2ccccc21
30%	-32%	0.8%	x	CCc1nc(SCc2ccccc2)n[nH]1
8%	0%	-0.9%	4	Cc1ccc(SCC(=O)NC(=O)Nc2ccc3c(c2)OCCO3)c(C)c1
7%	-4%	7.7%	-18	Fc1ccc(CNC(=S)NCc2ccc(F)cc2)cc1
2%	x	u	x	COc1ccc(-c2nnn(CC(=O)N(Cc3ccc(F)cc3)C(C(=O)NC3CCCC3)c3ccc(F)cc3)n2)cc1 (configuration not stated)
2%	0%	-0.7%	-9	COc1ccc(C2SCCN2C(=S)Nc2cccc(Cl)c2)cc1 (configuration not stated)
28%	x	2.0%	x	CC(OC(=O)c1ccc2ncsc2c1)C(=O)Nc1cccc(Cl)c1 (configuration not stated)
-1%	-4%	3.2%	x	CC(C)[C@H](NC(=O)[C@@H]1CSC2c3ccccc3C(=O)N21)C(=O)N1CCCCC1 (some centres not stated)
-16%	x	-1.5%	x	NC1=NC(c2ccc([N+](=O)[O-])cc2)N(c2ccc(F)cc2)C(N)=N1 (configuration not stated)
-1%	u	1.0%	-15	COc1ccc(C(CCNCc2ccc(F)cc2)c2ccc(F)cc2)cc1 (configuration not stated)
-11%	-2%	-0.8%	7	CCCc1nc2ccccc2c(=O)n1NC(=O)c1c(O)c2ccccc2[nH]c1=O
-10%	x	-1.4%	x	C[C@H]1O[C@H](O[C@H]2[C@H](O[C@@H]3CC[C@@]4(C)C(CC[C@]5(C)C4CC=C4[C@@H]6CC(C)(C)CC[C@]6(C(=O)O[C@@H]6O[C@H](CO)[C@@H](O)[C@H](O)[C@H]6O)CC[C@]45C)C3(C)C)O[C@H](C(=O)O)[C@@H](O)[C@@H]2O)[C@@H](O)[C@@H](O)[C@@H]1O (some centres not stated)
u	-10%	u	x	CCOC(=O)C1CCCN(C2=NC(=O)/C(=C/c3ccc(N(C)C)cc3)S2)C1 (configuration not stated)
18%	-36%	-1.3%	-6	COc1ccc(-c2csc(COC(=O)C(C)(C)C)n2)cc1
-4%	-13%	-1.5%	0	O=C(CC1COc2ccccc2O1)Nc1ccccn1 (configuration not stated)
-2%	-12%	u	-10	Nc1nc(NCCCN2CCOCC2)nc(Nc2cccc(F)c2)c1[N+](=O)[O-]
-1%	3%	0.1%	0	O=c1c2cnn(-c3ccc(F)cc3)c2ncn1Cc1ccccc1
0%	0%	-1.6%	-4	CCCNC1CCS(=O)(=O)C1 (configuration not stated)
-17%	-2%	u	-4	O=C(N/N=C/c1ccccc1)c1sccc1OCc1ccc(F)cc1
9%	-43%	0.2%	-1	NC(=O)c1ccccc1OCC(=O)Nc1ccc(Cl)c(Cl)c1
7%	-18%	0.6%	x	CSc1ccccc1NC(=O)Nc1cccc2ccccc12
-4%	-2%	0.8%	6	C=CCNC(=O)C(=O)N/N=C/c1cccc(Br)c1
30%	1%	4.9%	5	Cc1nnc(NC(=O)Cc2ccc(OCc3c(C)noc3C)cc2)s1
12%	-1%	-0.4%	2	Cc1ccccc1CNC(=O)c1ccccc1
-1%	x	-3.1%	x	Cc1ccccc1NC(=O)Cc1nc(COC(=O)c2ncc(Cl)c(Cl)c2Cl)cs1
-6%	-4%	5.2%	u	CCOC(=O)C1=C(O)C(=O)N(Cc2ccccc2)C1
-3%	-2%	-0.6%	x	COc1ccc(CNC(=O)CN(C)Cc2ccc(SC)cc2)cc1
u	2%	u	5	CCCOc1ccc(N)cc1N
-24%	-5%	-6.9%	6	O=C(N/N=C/c1oc(O)c2ccccc12)c1ccccc1O
6%	-6%	1.1%	3	CCOC(=O)CNC(=O)CSc1nc(NCc2ccccc2)nc(N(C)C)n1
u	-47%	4.9%	-21	Cc1ccc(N/N=C2\COC(C)(C)CC2=O)cc1
0%	-36%	2.2%	2	CC(C)(C)C(=O)Cn1ncc(N2CCCC2)c(Br)c1=O
-1%	-5%	-3.0%	7	CC(/C=N/NC(=O)c1cc(-c2cccs2)[nH]n1)=C\c1ccccc1
-9%	2%	-4.3%	2	O=C(C1CCCCC1)N1CCN(C(=O)C2CCCCC2)CC1
4%	x	0.1%	x	COc1cccc(C2=CC(=O)C[C@H](c3ccc4c(c3)OCO4)C2)c1OC
-6%	1%	4.4%	x	Cc1cc(OC(=O)c2cccc(C(F)(F)F)c2)c([N+](=O)[O-])c(=O)[nH]1
5%	-2%	-3.0%	x	Cc1nnc2n1N=C(c1ccccc1)CS2
33%	2%	0.4%	3	CCn1c(SCc2c(Cl)cccc2Cl)nnc1-c1nn(-c2ccccc2)ccc1=O
3%	-1%	2.1%	8	Cc1c(NC(=O)CSc2ccccc2F)c(=O)n(-c2ccccc2)n1C
10%	x	u	x	Cc1cc(C)cc(NC(=O)C(OC(=O)c2ccc(NC(=O)CC#N)cc2)c2ccccc2)c1 (configuration not stated)
8%	3%	-0.5%	x	CCOc1cc(NC(=O)c2ccccc2C(=O)O)c(OCC)cc1NC(=O)c1ccccc1F
-15%	-11%	2.7%	5	O=C(NCc1cn2ccccc2n1)c1ccccc1
8%	-4%	5.8%	x	O=C(c1ccc(S(=O)(=O)Nc2cccc(C(F)(F)F)c2)cc1)N1CCOCC1
4%	-7%	-0.1%	-4	O=[N+]([O-])c1cc(C(F)(F)F)c(Cl)cc1N1CCN(CCO)CC1
-12%	x	-6.3%	x	Cc1ccn2c(=O)nc(SCC(=O)N3CCCCCC3)nc2c1

# Additional records
Rango release inh	miR-21 reporter	Rango-impB inh	GLA inh pH 4.5	SMILES
32%	0%	-4.1%	5	CC(=O)Nc1ccc(-c2nn[nH]n2)cc1
17%	-5%	-0.7%	x	COCCn1c(=NC(=O)CSCC(=O)N2CCOCC2)sc2ccccc21
0%	-5%	2.4%	1	CC1Cn2c(COc3ccccc3)nnc2S1 (configuration not stated)
4%	-7%	3.3%	x	CC(=O)NC(CC(C)C)C(=O)NC(Cc1ccccc1)C(N)=O (configuration not stated)
-15%	-12%	2.5%	-5	CN1/C(=C\C(=O)Nc2ccc(Cl)cc2)C(C)(C)c2ccccc21
26%	x	1.9%	x	O=C(NNC(=S)Nc1ccc(C(=O)O)c(O)c1)c1ccncc1
35%	-37%	1.0%	-4	O=C(NC1=NCCS1)c1cccc2ccccc12
4%	-1%	1.8%	-3	CC(C)NC(=S)Nc1cccc2cnccc12
3%	x	4.8%	x	O=C(C=Cc1ccco1)c1ccc([N+](=O)[O-])cc1
2%	x	0.7%	x	C#CCOCCOCCOCCNc1nc(N2CCN(C(=O)[C@H](CCCCN)n3cc(CCC(=O)O)nn3)CC2)nc(N2CCN(C(=O)[C@H](Cc3ccc(O)cc3)n3cc(CCO)nn3)CC2)n1
-4%	3%	u	x	O=C(CCN1CCOCC1)NNC(=O)Nc1cccc([N+](=O)[O-])c1
29%	0%	1.4%	x	Cc1ccccc1NC(=O)CN1C(=O)CSc2ccc(S(=O)(=O)N3CCCCC3)cc21
-3%	u	0.0%	-9	Cc1cc(C)n(-c2ccc(C(=O)Nc3ccc(S(=O)(=O)NCc4ccco4)cc3)cc2)n1
-22%	x	4.0%	x	CCc1ccc(C(=O)OCC(=O)N2CCCCCC2)cc1
8%	6%	-0.5%	x	COc1cccc(CNC(=O)[C@H](CC(C)C)NC(=O)N2CCn3c2nc2ccccc23)c1
u	3%	u	-5	O=C(CN1C(=O)C2CCCN2c2ncc(Cl)cc21)NCc1ccc2c(c1)OCO2 (configuration not stated)
18%	x	1.6%	x	COc1ccc(C(CNC(=O)C(C)Oc2ccc(Br)cc2)N2CCCCC2)cc1 (configuration not stated)
6%	-7%	-3.6%	-23	COC(=O)CC1COc2ccccc2N1C(=O)c1ccc(Br)cc1 (configuration not stated)
13%	0%	0.8%	2	CCC(=O)c1cn(CC(=O)OC)c2ccccc12
9%	x	1.5%	x	CC(C)C[C@@H](CNCC(=O)[C@H](CC(C)C)NC(=O)c1[nH]cnc1C(=O)N[C@@H](C)CN)NC(=O)c1nc[nH]c1C(=O)N[C@@H](C)C(=O)O
8%	x	-1.8%	x	COc1ccccc1C(CNC(=O)CNC(=O)c1ccc(Cl)c(Cl)c1)N1CCCC1 (configuration not stated)
10%	-2%	-1.2%	2	Cc1cccc(CN2CCN(CC(=O)NCc3cccs3)C2=O)c1
-12%	-1%	4.8%	-3	CCc1nnc(NC(=O)c2nc3nc(C)cc(C)n3n2)s1
21%	-9%	2.1%	1	CC(=O)NC(CCS(C)(=O)=O)C(=O)Nc1cccc(C(C)=O)c1 (configuration not stated)
12%	-5%	-1.7%	5	COC(=O)c1[nH]c2ccccc2c1NC(=O)CN1CC(C)OC(C)C1 (configuration not stated)
-11%	-14%	-2.9%	-10	O=C(/C=C/c1ccccc1Cl)Nc1cccc(S(=O)(=O)NC2=NCCCCC2)c1
9%	2%	2.8%	x	Cc1nnc(SCC(=O)Nc2cc(S(C)(=O)=O)ccc2Cl)n1Cc1ccccc1
